Assay outcomes as filed in PubChem.
MT1-MMP act inh = MT1-MMP (human) activation inhibition; P50281; HT1080 RFP-PRO-GFP cells, GFP/RFP ratio fluorescence, overnight; percent of plate control window, DMSO zero; GFP/RFP ratio change, % at 20 µM; 0.061% of 360,000 active; AID 651647;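 active means GFP/RFP ratio change of at least 30% with cell ATP level not reduced by more than half and red fluorescence within 50% of control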; further: strong numbers were not always called active
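Test system: HT1080 RFP-PRO-GFP cells; Benchmarks: DMSO and RFP-L50D-GFP cell wells; Timing: cells overnight before dosing, compound overnight, 37 °C, 5% CO2; Compound: one 20 µM compound dose with 1% DMSO; Read-out: GFP/RFP fluorescence ratio.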
HIV Env fusion = inhibitors of HIV Env-mediated cell fusion | 1.1% of 360,000 active | AID 651610 | inhibition, % at 12.3 µM | HeLa-JRFL Env/CEM21 cell fusion, luciferase;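 active means mean replicate inhibition score of at least 50 and every replicate individually at or above 50; inconclusive means only one of the two criteria met; inactive means mean below 50 and not all replicates reaching 50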;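 further: 0% = plate neutral controls and 100% = maraviroc near 300 nM; one replicate is shown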
CSC inhib = blocks cancer stem cells. cancer stem cell-like cells viability, luminescence. inhibition, % at 7.5 µM. 1.1% of 300,000 active. AID 2717;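 active means mean at 75% or more and at least half the replicates too; inconclusive means mean and replicates disagree; tested in HMLE shEcad cells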;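 further: 0% = median of negative and 100% = median of positive control wells; the first replicate is given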
PABP polyA inh = blocks human PABP binding to poly(A) RNA; P11940; fluorescence polarization; inhibition, % at 35 µM; 1% of 290,000 active; AID 2014;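 active means 50% or more with normal probe brightness, or confirmed in later tests; inconclusive means above 50% with abnormal brightness, or retests that disagree; inactive means below 50% or failed in later tests; about a fifth of its hits are not listed in these tables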;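 further: calls also rest on retests at 20 µM and on dose response follow-up; controls were probe without protein and protein plus probe with vehicle; some compounds called inactive have numbers as strong as hits; many hits fall short of the cut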
Target sequence (P11940 whole entry, looked up): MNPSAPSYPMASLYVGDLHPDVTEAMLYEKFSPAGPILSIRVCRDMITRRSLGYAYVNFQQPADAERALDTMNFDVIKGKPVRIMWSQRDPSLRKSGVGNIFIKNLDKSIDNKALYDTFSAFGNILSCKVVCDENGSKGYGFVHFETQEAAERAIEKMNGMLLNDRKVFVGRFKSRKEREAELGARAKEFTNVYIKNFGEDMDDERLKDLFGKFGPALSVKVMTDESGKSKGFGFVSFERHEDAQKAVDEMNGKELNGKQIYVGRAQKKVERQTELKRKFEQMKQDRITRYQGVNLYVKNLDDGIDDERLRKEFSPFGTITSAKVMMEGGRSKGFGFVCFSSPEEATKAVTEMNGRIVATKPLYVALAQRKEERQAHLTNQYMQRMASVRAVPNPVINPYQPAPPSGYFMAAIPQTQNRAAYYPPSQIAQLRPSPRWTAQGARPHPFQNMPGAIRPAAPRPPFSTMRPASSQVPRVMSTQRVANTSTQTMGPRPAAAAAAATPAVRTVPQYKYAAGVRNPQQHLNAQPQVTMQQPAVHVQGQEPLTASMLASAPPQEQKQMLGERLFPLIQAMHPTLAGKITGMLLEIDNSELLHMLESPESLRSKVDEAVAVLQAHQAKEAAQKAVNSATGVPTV
eIF4H FP inh = inhibitors of RNA binding by human eIF4H. 0.94% of 290,000 active. Q15056. inhibition, % at 35 µM. eIF4H fluorescence polarization binding assay;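 active means 50% or more with normal probe brightness, or confirmed in later tests; inconclusive means above 50% with abnormal brightness, or retests that disagree; inactive means below 50% or failed in later tests; about a fifth of its hits are not listed in these tables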;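 further: calls also rest on retests at 20 µM and on dose response follow-up; 0% = protein and probe with vehicle and 100% = probe without protein; strong numbers were not always called active; many hits fall short of the cut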
Rce1 inhib = yeast Ras-converting enzyme inhibition; Q03530; yeast membranes, quenched prenylated peptide cleavage fluorescence; calls only; 0.27% of 290,000 active; AID 2563;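 active means fall in fluorescence gain of 50% or more versus controls, with final raw signal at or below 3038400; inconclusive means same 50% fall but final raw signal above 3038400; inactive means fall in fluorescence gain under 50%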;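 further: plate controls were neutral control wells for no effect and wells lacking membranes for full effect; tested at 10 µM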
Target sequence (Q03530 whole entry, looked up): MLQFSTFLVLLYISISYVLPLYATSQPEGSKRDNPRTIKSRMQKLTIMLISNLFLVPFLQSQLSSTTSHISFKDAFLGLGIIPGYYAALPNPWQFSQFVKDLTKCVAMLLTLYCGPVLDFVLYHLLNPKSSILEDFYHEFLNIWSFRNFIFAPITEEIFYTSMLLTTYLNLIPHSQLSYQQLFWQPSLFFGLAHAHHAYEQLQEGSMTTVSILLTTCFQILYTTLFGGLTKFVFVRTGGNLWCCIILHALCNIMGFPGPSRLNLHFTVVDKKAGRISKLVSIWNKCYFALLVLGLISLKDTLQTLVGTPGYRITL
Yeast UUG start = modulators of start codon recognition fidelity in yeast; AID 602363; 0.13% of 350,000 active; S. cerevisiae UUG-firefly luciferase reporter, luminescence/redox ratio; activity score, % at 18.7 µM;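 active means replicate mean at a twofold rise or more, about +100% in these data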;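 further: firefly luciferase made from a UUG start codon reports start codon fidelity; reporter light over untreated wells divided by growth signal over untreated wells; some hits fall short of that in this replicate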
MT1-MMP act inh RFP = recorded beside MT1-MMP act inh, whose call it bears; RFP signal change, %; measured here: RFP expression control read;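 0 = vehicle wells; hits needed this value within 50% of zero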
Numbers without * were called inactive; i = inactive; ? = inconclusive; nt = not tested or not shown. An unsorted share of the library; overall some 3% were active at least once.

SMILES	MT1-MMP act inh	MT1-MMP act inh RFP	HIV Env fusion	CSC inhib	PABP polyA inh	eIF4H FP inh	Rce1 inhib	Yeast UUG start
CS(=O)(=O)Nc1cccc(C2=NN(C(=O)c3ccccc3Cl)C(c3ccccc3O)C2)c1 (centres undefined)	2	3	6	-13	12	-1	i	nt
COc1ccc(Cc2n[nH]c(=S)n2NC(=O)Nc2ccc(Cl)c(Cl)c2)cc1	-1	-10	13	40	5	-11	i	-9
CC(C)CC1(C)N=C(c2ccccc2)C(=S)N1 (centres undefined)	nt	nt	3	-20	-2	-1	i	-15
COc1ccc(CNC(=S)Nc2ccc(F)c(Cl)c2)cc1OC	-3	-7	-8	13	-9	4	nt	nt
CCCCN1CC(N2CCN(CCN(C)C)CC2)CS1(=O)=O (centres undefined)	1	1	-69	nt	nt	nt	nt	-16
O=C(CC(NS(=O)(=O)c1ccc(Cl)cc1)c1ccco1)N1CCc2ccccc21 (centres undefined)	0	-4	nt	-12	4	9	i	5
CCOc1ccccc1C(=O)NC(CO)C(=O)O (centres undefined)	-1	-3	-55	-11	13	-5	i	-19
CCCC(=O)NC(c1cccs1)c1cc(Cl)c2cccnc2c1O (centres undefined)	-9	-7	74*	11	5	14	i	nt
CC(=O)Nc1ccc(NC(=O)C(C)OC(=O)/C=C/c2cn(-c3ccccc3)nc2-c2cccnc2)cc1 (centres undefined)	-12	-9	-13	-2	8	-2	i	nt
O=C(NC1CCS(=O)(=O)C1)c1ccc(S(=O)(=O)NCC2CCCO2)cc1 (centres undefined)	9	5	nt	16	10	3	i	-5
COc1ccc(C(=O)C(C)OC(=O)COc2ccccc2)cc1 (centres undefined)	0	3	6	1	nt	nt	nt	5
CNc1cnn(-c2ccccc2)c(=O)c1Cl	1	1	-55	-9	2	4	i	29
Cc1cccc(C(=O)OC(C)CN2CCCC2)c1 (centres undefined)	1	5	0	-11	-2	7	i	-11
N#Cc1ccccc1CCN1C(=O)c2ccccc2C1=O	0	1	-16	-14	6	2	i	-6
Cc1nc(Nc2ccccc2)[nH]c(=O)c1CCC(C)C	14	-4	-97	13	-1	1	nt	-10
CCOC(=O)N1CCN(C(=O)C2CC(c3cc(OC)ccc3OC)=NO2)CC1 (centres undefined)	5	0	0	nt	5	5	i	1
Cc1c(Cl)cnn1CC(=O)NC1C(=O)N2C(C(=O)O)=C(CSc3nnnn3C)CSC12 (centres undefined)	-5	1	2	-11	-10	28	i	nt
CC(CCN1CCC(CN2C(=S)NCC2Cc2ccccc2)CC1)c1ccccc1 (centres undefined)	5	2	66*	nt	nt	nt	nt	-7
O=C(COC(=O)c1cc([N+](=O)[O-])ccc1N1CCOCC1)NC1CCCCC1	0	1	-9	-4	nt	nt	i	-12
COc1cccc(C2=NOC(C(=O)NC(C)(C)C)C2)c1 (centres undefined)	1	1	-9	-6	-14	-5	i	nt
CCOC(=O)c1c(C)[nH]c(C)c1C(=O)COC(=O)c1ccc(O)cc1	0	7	-9	nt	2	-8	i	-12
O=C(NCC1CCCO1)c1ccccc1NS(=O)(=O)c1cccc([N+](=O)[O-])c1 (centres undefined)	-3	3	12	7	nt	nt	nt	-9
Cc1ccc(S(=O)(=O)N/N=C(\c2ccccc2)C2CC2)cc1	-4	-1	-35	-13	6	-9	i	-15
O=C(O)C[C@H]1c2cc(F)ccc2S(=O)(=O)N1C1CCN(Cc2ccccc2)CC1	0	3	-9	-1	nt	nt	i	3
Nc1ccc2c(c1)C(=NO)c1ccccc1-2	-5	-1	-242	nt	nt	nt	nt	-28
CC(C)(C)c1ccc(S(=O)(=O)NCC(=O)Nc2ccc(-c3nc4ccccc4s3)cc2)cc1	1	-3	nt	13	0	3	i	-19
COc1ccc(-c2nn(-c3ccccc3)cc2C(=O)Nc2nccs2)cc1	-2	-4	nt	-7	-9	-6	i	-18
CCn1cc(C(=O)Nc2ccc(OC)c(S(=O)(=O)N3CCCCC3)c2)c(=O)c2ccc(C)nc21	4	5	-3	0	-9	-5	i	nt
COc1cccc(C(=O)N/N=C(/c2ccccc2)c2ccccn2)c1	22	12	23	20	-10	-3	i	-19
O=C(Cn1cnc([N+](=O)[O-])c1)Nc1ccccc1C(F)(F)F	-1	0	5	-11	15	4	nt	-21

Compound profiles, from the list above. Order of screens: MT1-MMP act inh | MT1-MMP act inh RFP | HIV Env fusion | CSC inhib | PABP polyA inh | eIF4H FP inh | Rce1 inhib | Yeast UUG start
Cc1ccc(S(=O)(=O)N/N=C(\c2ccccc2)C2CC2)cc1 reads -4 | -1 | -35 | -13 | 6 | -9 | i | -15
CCOC(=O)c1c(C)[nH]c(C)c1C(=O)COC(=O)c1ccc(O)cc1 reads 0 | 7 | -9 | nt | 2 | -8 | i | -12

Other results:
SMILES	MT1-MMP act inh	MT1-MMP act inh RFP	HIV Env fusion	CSC inhib	PABP polyA inh	eIF4H FP inh	Rce1 inhib	Yeast UUG start
CCOc1ccc(N(CC)C(=O)COc2cc(=O)n(C)c3ccccc23)cc1	4	2	-1	-14	-10	-2	i	7
O=S(=O)(c1ccccc1)N1CCN(Cc2ccc(Cl)cc2)CC1	0	-8	0	-3	-3	-9	i	7
CCOC(=O)C/C(N)=N/N(C)c1ncc(C(F)(F)F)cc1Cl	-3	2	19	6	45	2	i	nt
Cc1ccc(NC(=O)CSc2nc3c(c(=O)[nH]2)CN(Cc2ccc(F)cc2)CC3)cc1C	8	3	33	-10	-15	-4	i	nt
CC(=O)Nc1ccc(OC(=O)Oc2ccc(NC(C)=O)cc2)cc1	0	0	7	6	-2	12	i	4
CC(Oc1ccccc1)c1nnc(SCC(=O)NC2CC2)n1C (centres undefined)	1	3	3	-12	7	4	i	-10
CCCN1CNC(=S)N(c2ccc(C(=O)OCC)cc2)C1	4	2	2	2	-9	-12	i	-3
CC(C)OC(=O)c1c(NS(=O)(=O)c2ccccc2)sc2c1CCCC2	nt	nt	-20	-4	-5	13	nt	-7
CC[C@H]1C(=O)[C@@H](Cc2ccccc2)[C@@H]2CCN3C(=O)CCC[C@H]1[C@H]23	1	-1	-10	nt	nt	nt	nt	-2
CC(C)c1ccc(NC(=O)C2C3C=CC4(O3)C2C(=O)N(CCCN2CCOCC2)C4C(=O)NC2CCCCC2)cc1 (centres undefined)	3	4	-1	-10	-12	-4	i	-1
CCCN(c1nc(C)cc(OC)n1)S(=O)(=O)c1ccccc1	0	-1	nt	26	4	4	i	-8
CC(C)NC(=O)Cn1nc(C(F)(F)F)c2c1CCC2	-1	-1	nt	-5	-3	-6	i	-9
NNc1nc(Nc2ccc([N+](=O)[O-])cc2)nc(N2CCCCCC2)n1	5	0	-15	1	-1	6	i	-28
CCN1CCN(c2ncc3c(n2)CC(c2ccc(OC)c(OC)c2)CC3=O)CC1 (centres undefined)	-11	-9	-178	17	-3	4	i	-12
Cc1ccc(NC(=O)C(C)Sc2nc(-c3ccccc3)cc(=O)[nH]2)cc1 (centres undefined)	9	3	-12	16	5	-12	i	3
C#Cc1cccc(Nc2nc(NC(C)C)nc3ccsc23)c1	-7	-17	37	nt	nt	nt	nt	-5
Cc1ccccc1NC(=O)Cc1nc(COC(=O)c2cccnc2Cl)cs1	0	1	7	0	nt	nt	nt	-13
O=C(COc1ccc(S(=O)(=O)NC2CCCCC2)cc1)NC1CCCCC1	0	-2	nt	nt	-9	-4	i	-14
N/C(=N\OC(=O)c1ccccc1Cl)c1cccc([N+](=O)[O-])c1	5	-2	-156	2	9	-10	i	-15
Cc1ccc2c(c1)N(CC(=O)Nc1ccccc1F)C(=O)CO2	-3	-3	11	3	-5	-5	i	-6
CC(Nc1ccc(Br)cn1)c1cc(Cl)ccc1O (centres undefined)	-7	0	nt	nt	-2	0	i	1
CCCOc1ccc2c3c(c(=O)oc2c1OCCC)CCCC3	-4	-7	nt	nt	-12	-12	i	nt
CCOC(=O)c1cnc2ccc(OCC)cc2c1NCc1ccccc1	-18	-29	26	53	-7	-7	i	-12
Cc1ccc(C)c(NC(=O)COC(=O)c2c(C)nn(-c3ccccc3)c2C)c1	3	-1	2	nt	nt	nt	nt	-12
O=C(CNC(=O)c1cccc(F)c1)NC1CC1	-10	1	-8	-17	nt	nt	nt	-16
OCc1cccc[n+]1Cc1ccccc1	0	6	-5	-2	nt	nt	i	-13
Oc1ccc(N=Nc2ccc3c(c2)OCCO3)c(O)c1	6	-5	-106	84*	9	-8	i	-81
COc1ccc(NC(=O)CSCc2ccc(C)cc2)cc1	1	0	-109	-5	-5	9	i	nt
CCOc1cc(C(=O)Nc2cc(C)ccc2C)ccc1OCC(=O)N1CCCCC1	2	-3	1	-9	-7	-7	i	16
Cc1ccc(-n2c(=O)c3sccc3n(CC(=O)NC3CCCC3)c2=O)cc1	1	5	14	nt	4	-2	i	-11
CCOc1cc(N2CCOCC2)c(OCC)cc1NC(=O)CN1CCC(Cc2ccccc2)CC1	3	-7	-4	84*	-3	-5	i	nt
CCOC(=O)c1ccc(S(=O)(=O)N2CCN(C)CC2)cc1	-3	2	nt	nt	5	-2	i	-12
O=C(CCCCCCCC(=O)N1CCCC1)N1CCCC1	1	3	-11	nt	nt	nt	nt	-21
Cc1c(NC(=O)COC(=O)CCc2c[nH]c3ccccc23)c(=O)n(-c2ccccc2)n1C	2	2	-14	3	8	12	i	-8
CCCCNCC1CCCO1 (centres undefined)	-1	6	1	-7	15	-3	i	-1
COc1ccc(-c2cc(=O)c3ccccc3s2)cc1	-2	-5	nt	12	-7	-13	i	-22
CCN(CC(=O)Nc1c(F)cccc1F)C(=O)c1cccn1C	-2	2	-2	nt	nt	nt	nt	-15
Cn1c(NC(=O)c2ccc(Cl)cc2)cc(=O)n(C)c1=O	-1	-2	7	-9	17	11	i	nt
CCc1ccc(-n2nnnc2SCC(=O)NNC(=O)c2ccco2)cc1	2	-1	nt	-14	?	?	i	-26
COc1ccccc1N(CC(=O)Nc1ccc2c(c1)OCO2)S(=O)(=O)c1ccccc1	1	-1	-40	-4	49	4	i	7
CCOc1ccc(N2C(=O)CSC2=S)cc1	14	18	-5	1	2	2	i	-19
CCc1cccc(OCCOCCN2CCCC2)c1	3	8	-45	-1	13	8	nt	-12
Cc1cccc(N=Nc2c(C)nn(-c3ccccc3)c2N)c1C	-1	-4	-50	50	-9	-11	i	nt
O=C(NCc1ccccc1)C1CCC(CNS(=O)(=O)c2cccs2)CC1 (centres undefined)	-2	2	2	-11	0	-7	i	-9
Cc1nc2c(=O)n(-c3ccc(F)c(Cl)c3)nc(C)c2s1	3	1	1	-5	20	-4	i	-13
CCC[C@@H](CN1CCC[C@H]1CN1C(N)=NC[C@@H]1Cc1ccccc1)N1C[C@@H](Cc2ccccc2)N(CCCC2CCCC2)C1=N	4	-1	nt	4	nt	nt	nt	-2
COc1cc(NC(=O)C2CSC3(C)CCC(=O)N23)c(OC)cc1Cl (centres undefined)	5	-1	-5	-11	nt	nt	i	nt
C[C@H](CO)N1C[C@H](C)[C@@H](CN(C)S(=O)(=O)c2cccs2)Oc2c(NC(=O)CCC(F)(F)F)cccc2C1=O	1	1	-43	-10	nt	nt	nt	-9
Cc1cc(/C=C(\C#N)c2nnc(N3CCOCC3)n2-c2ccccc2)c(C)n1-c1ccccc1	nt	nt	nt	-5	-6	?	i	nt
C=CCNC(=S)Nc1cccc2[nH]ncc12	1	1	19	-13	-3	14	i	nt
COc1ccccc1NC(=O)CSc1nc(=O)n2cc(C)ccc2n1	1	-1	-3	0	nt	nt	i	-18
CN1C(=O)C(CC(N)=O)N(NC(=O)c2ccc(Cl)cc2)C1=S (centres undefined)	0	3	0	-9	3	1	i	-15
